FGF22 binding = shifts melting point of recombinant human FGF22 | 1.5% of 340,000 active | calls only at 9.99 µM | Q9HCT0 | AID 651658 | recombinant FGF22 thermal shift, SYPRO orange fluorescence; percent of sucrose octasulfate shift, DMSO zero;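 active means melting point raised past a set limit in the mean and every replicate; three in four hits are not shown here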
LANA-H2B inh = blocks KSHV LANA binding to histone H2A/H2B | cell-free LANA-H2A/H2B peptide, fluorescence polarization | inhibition, % (no concentration beside the values) | 0.6% of 320,000 active | AID 2629; in the data active means inhibition mostly above about 10%, no sharp cut-off; inactive means mostly below about 6.7%;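 further: stock transfer was 7.5 nL into about 10 µL; 0% = median of vehicle wells and 100% = median of positive control wells; one replicate is shown; the record names a cut of 25% in any replicate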
B2AR ag = human beta-2 adrenergic receptor agonism by FAP; P07550; Am2.2-beta2AR cells, FAP receptor internalization, flow cytometry; reference of the scale not given here; response, % (no concentration beside the values); 0.43% of 340,000 active;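 active means response above a set limit, near 3 SD of response in nonfluorescent compounds, cut at about 42% in these data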;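 further: stock transfer was 100 nL into about 11 µL; a reference agonist was the positive control; negative values mostly stem from fluorescent compounds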
Target sequence (P07550 whole entry, looked up): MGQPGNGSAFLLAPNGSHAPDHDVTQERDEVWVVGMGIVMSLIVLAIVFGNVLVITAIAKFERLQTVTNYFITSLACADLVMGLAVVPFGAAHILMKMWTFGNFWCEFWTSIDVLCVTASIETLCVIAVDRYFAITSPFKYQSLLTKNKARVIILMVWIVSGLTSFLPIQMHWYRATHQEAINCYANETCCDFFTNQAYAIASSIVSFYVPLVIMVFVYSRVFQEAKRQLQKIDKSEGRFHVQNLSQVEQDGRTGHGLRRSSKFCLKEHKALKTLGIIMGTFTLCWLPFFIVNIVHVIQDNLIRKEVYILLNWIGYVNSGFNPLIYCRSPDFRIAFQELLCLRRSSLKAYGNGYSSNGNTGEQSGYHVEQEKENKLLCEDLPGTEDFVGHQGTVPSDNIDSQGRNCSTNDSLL
E coli growth = inhibitors of Escherichia coli growth | AID 1053175 | OD600, 23 h; active compounds read low | OD600 absorbance (test concentration not listed) | 0.21% of 330,000 active;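 active means OD600 absorbance below the run mean of sample wells minus 3.6 SD, in any replicate, cut at about 0.56 in these data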;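 further: stock transfer was 300 nL into about 60 µL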
ALR inh = human ALR oxidase inhibition via reduced H2O2; P55789; purified ALR, DTT oxidation, H2O2 HRP-luminol luminescence; inhibition, % (concentration not given with the values); 3.8% of 290,000 active; AID 485317;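 active means mean and each replicate at 75% or more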;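 further: stock transfer was 7.5 nL into about 7.5 µL; 0% = neutral wells and 100% = wells with inactivated enzyme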
Target sequence (P55789 whole entry, looked up): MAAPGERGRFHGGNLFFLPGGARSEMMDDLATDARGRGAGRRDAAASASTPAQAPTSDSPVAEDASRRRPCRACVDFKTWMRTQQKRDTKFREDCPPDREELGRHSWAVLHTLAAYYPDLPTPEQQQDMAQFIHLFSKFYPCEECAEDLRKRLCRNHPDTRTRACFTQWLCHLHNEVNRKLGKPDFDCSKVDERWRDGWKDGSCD
UCH37 inh = blocks the human deubiquitinase UCH37; Q9Y5K5; purified proteasome/UCH37, Ub-AMC cleavage fluorescence; inhibition, % (concentration not given with the values); 0.33% of 330,000 active; AID 588478;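 active means mean of two replicates above 20%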;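 further: 0% = compound-free wells with enzyme and 100% = wells lacking proteasome; stock transfer was 100 nL into about 20 µL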
Target sequence (Q9Y5K5 whole entry, looked up): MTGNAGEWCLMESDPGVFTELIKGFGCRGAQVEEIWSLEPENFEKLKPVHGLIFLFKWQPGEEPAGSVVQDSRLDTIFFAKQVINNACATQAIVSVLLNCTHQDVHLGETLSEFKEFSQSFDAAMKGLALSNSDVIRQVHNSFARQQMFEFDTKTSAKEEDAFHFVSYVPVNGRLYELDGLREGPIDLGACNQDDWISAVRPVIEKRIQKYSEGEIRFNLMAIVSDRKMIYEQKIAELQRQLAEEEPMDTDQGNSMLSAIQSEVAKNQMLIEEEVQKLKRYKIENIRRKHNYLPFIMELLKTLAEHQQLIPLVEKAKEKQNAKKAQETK
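Material: Human UCH37 enzyme supplied as purified proteasome complex | Schedule: 30 min compound-proteasome preincubation then 25 min substrate reaction, room temperature | Detection: AMC fluorescence from Ub-AMC cleavage, excitation 355 nm, emission 460 nm | Benchmarks: Wells without proteasome as full block, compound-free enzyme plus substrate as uninhibited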
HNF4A DNA FP = change in binding of human HNF4 alpha to DNA; HNF4a-FITC DNA binding, fluorescence polarization, 1 h; activity change, % at 10 µM; 0.3% of 360,000 active; AID 1224865; in the data active means activity change above about 30%, passing the limit was not always enough;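 further: controls were the assay level and a saturating level of protein; the project sought stronger binding though the title names inhibitors; some compounds called inactive have numbers as strong as hits; positive values seem to mean higher polarization but the record does not say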
* hit, by the source's call; i = inactive; · = not tested or not shown; ! = not confirmed by another sample. Only part of the results is shown (hit frequency here may not be typical).

SMILES	FGF22 binding	LANA-H2B inh	B2AR ag	E coli growth	ALR inh	UCH37 inh	HNF4A DNA FP
CC1CCN(C(=O)N[C@@H](Cc2ccccc2)C(=O)O)CC1	·	0.1	0	0.74	-3	-0.8	1.0
c1ccc(-c2nccc3ccccc23)cc1	i	1.4	3	0.68	15	3.9	0.8
COC(=O)N/N=C(\C)c1ccc(Br)cc1	·	1.3	-12	·	-9	·	-0.6
COc1cccc(CN2CCNC(=O)C2CC(=O)NC2CCOCC2)c1OC (stereo unspecified)	i	·	-9	0.72	-46	-1.8	-1.0
Cc1cccnc1NC(=S)NC(=O)c1oc2ccccc2c1C	i	3.4	-10	0.68	-5	0.5	-3.8
O=C(CSc1nc2c(sc3ccccc32)c(=O)n1CCCN1CCCC1)NCC1CCCO1 (stereo unspecified)	·	2.0	0	0.72	-3	2.3	1.8
COC(=O)N/N=C/c1cc(Cl)cc(Cl)c1OCc1ccccc1	·	3.3	-6	·	-2	·	0.4
Cc1ccc(NC(=S)Nc2c(C)n(C)n(-c3ccccc3)c2=O)cc1Cl	i	1.8	-4	0.67	0	1.4	-5.9
COc1ccc(N2Cc3ccc(OC)c(OC)c3C2=O)cc1	i	2.0	4	0.64	-6	2.3	2.0
Cc1ccc(C2c3[nH]c4ccccc4c3C[C@H]3C(=O)N(c4ccccc4C(=O)NCCCN4CCOCC4)C(=O)N23)cc1 (stereo partly specified)	i	1.5	8	0.73	11	4.0	3.3
Nc1ccccc1-c1nnc(-c2ccc(-c3ccccc3)cc2)o1	·	0.3	9	0.74	-1	-411	2.0
O=C(N/N=C/c1cccc([N+](=O)[O-])c1)C1CC(=O)N(c2ccc(Cl)cc2)C1 (stereo unspecified)	·	0.9	-2	·	-5	·	-0.3
CC(C)Nc1nc(Cl)nc(N(C#N)CN2C(=O)c3ccccc3C2=O)n1	·	4.0	1	0.69	11	3.3	6.8
Cc1c(Cc2ccccc2)c(=O)oc2cc(OCC(=O)N[C@@H](Cc3ccccc3)C(=O)O)ccc12	i	-1.0	0	0.72	12	-159	1.3
COc1cccc(-c2nc(N3CCCCC3)c3ccccc3n2)c1O	i	2.4	16	0.65	4	7.1	3.9
O=C1CCN(S(=O)(=O)c2ccc(Cl)cc2)N1	·	0.2	-1	0.68	13	2.9	3.8
O=C(OCc1c(Cl)cccc1Cl)c1cnccn1	·	-0.7	-6	0.66	1	-2.2	3.0
CCN(CC)CCN(C(=O)C1=COCCO1)c1nc2cc3c(cc2s1)OCO3	i	3.5	8	0.68	-15	8.9	0.7
O=C(CCN1CCOCC1)NNC(=O)Nc1cccc(Cl)c1	i	-8.7	2	0.66	-17	4.5	-5.5
NC(=O)C1=C[C@@H](c2csc3ccccc23)C[C@@H](OCc2ccc(CO)cc2)O1	i	4.3	-7	·	-27	5.6	2.0
CC(C)n1ncc2c(C(=O)O)cc(C3CC3)nc21	i	-0.8	-4	0.74	-2	-9.5	-0.9
CC(C)(C)c1ccc(C(=O)N/C(=C\c2ccco2)C(=O)Nc2ccccc2C(=O)O)cc1	i	-0.7	-3	0.71	67	13	2.1
Cc1ccc(S(=O)(=O)Nc2cccc(N(C)S(C)(=O)=O)c2)cc1[N+](=O)[O-]	·	5.2	-5	0.69	6	2.7	0.3
Cc1ccc(S(=O)(=O)N2CCN(C(=O)CCC(=O)Nc3ccc(Br)c(C)c3)CC2)cc1	i	·	5	0.72	·	3.4	-2.6
COc1ccc(O)c(CN2CCC(n3nccc3NC(=O)c3ccccc3Cl)CC2)c1	i	7.0	0	0.7	-15	1.6	-1.8
COc1ccc(C(=O)Cn2nnc(-c3ccccc3F)n2)cc1	i	4.1	-1	0.65	-18	0.1	-0.3
COc1ccc(CNC(=O)C2CCN(C(=O)c3ccco3)CC2)cc1	i	6.2	-7	0.65	5	2.0	1.4
COC(=O)N/N=C(\C)c1cccc(C(F)(F)F)c1	i	0.4	-10	·	-1	·	1.6
CCCCS(=O)(=O)N1CCCC(C(=O)Nc2ccc3c(c2)CCC3)C1 (stereo unspecified)	i	-5.7	0	0.7	-6	0.7	0.9
Fc1ccccc1-c1nc2ncccc2o1	i	-5.3	-1	0.64	7	0.8	-0.7
N#CCC(=O)Nc1ccc(C(=O)N2CCN(S(=O)(=O)c3ccc4ccccc4c3)CC2)cc1	i	2.5	-7	0.68	14	6.4	2.4
Cn1c(CNC(=O)c2ccc3c(c2)OCO3)nnc1SCC(=O)Nc1ccccc1F	i	0.7	-4	0.66	-3	-2.6	12
O=C(CCN1CCCCC1)N/N=C/c1c[nH]c2ccccc12	i	5.8	-2	·	9	·	-1.1
CC(=O)NC(CCS(C)(=O)=O)C(=O)Nc1cc(C)ccc1C (stereo unspecified)	i	0.8	3	0.69	-5	1.0	2.8
COc1ccc(CCNC(=O)CCNC(=O)c2ccco2)cc1OC	i	-20	-2	0.69	-7	-1.3	-0.5
Cc1ccc(C)c(N2N=C(C(=O)Nc3cccc(S(=O)(=O)N4CCCCC4)c3)CCC2=O)c1	i	-8.3	-2	0.66	·	0.1	3.0
N#C/C(=C\c1ccccc1C(F)(F)F)C(=O)Nc1ccccc1	i	3.5	0	0.7	90*	2.3	-1.1
CCC(=O)Nc1cccc(NC(=S)NC(=O)c2ccccc2Cl)c1	·	6.1	-3	0.72	0	-3.6	4.3
COc1ccc(S(=O)(=O)N2CCCC(C(=O)NC3CCCCC3)C2)cc1 (stereo unspecified)	·	-0.6	0	0.73	-14	3.5	-0.7
CCOC(=O)Cn1nc(NC(=O)c2cc(OC)cc(OC)c2)cc1C	i	4.9	10	0.62	-9	0.2	-1.4
Cc1[nH]n(-c2ccccc2)c(=O)c1C=NCc1ccncc1	i	-1.5	-3	0.74	-1	5.7	0.8
NC(=O)SCC(=O)Nc1cccc(Cl)c1	·	-3.6	14	0.67	99*	0.6	1.9
C[C@H](OC(=O)n1ccnc1)[C@@H]1O[C@@]2(C)CCC[C@@H]1O2	i	6.0	-5	·	5	-0.6	-1.1
CCOC(=O)c1[nH]c2ccc(OC)cc2c1NC(=O)CCN1CCc2ccccc2C1	·	-4.6	3	0.77	-11	-75	-4.2
CC1CCc2nc3ccccc3c(C(=O)OCC(=O)N3CCc4ccccc43)c2C1 (stereo unspecified)	·	2.6	-6	0.7	-6	6.7	-0.9
O=C(NC1CCCCCC1)c1ccc[nH]c1=S	i	-3.1	-5	0.71	92*	4.4	-3.2
CCCCCN(C(=O)CCC(=O)OCc1ccccc1F)c1c(N)n(CCCC)c(=O)[nH]c1=O	·	5.0	-1	0.68	·	0.0	0.4
O=C(NCC1CCCO1)C1CCC(CNS(=O)(=O)c2ccccc2)CC1 (stereo unspecified)	·	4.9	5	0.67	-3	0.6	1.4
COc1ccc(CCNC(=O)CSCc2ccc([N+](=O)[O-])cc2)cc1	·	-3.7	-1	0.68	-14	4.8	3.5
CCOC(=O)C1=C(C)NC(C)=C(C(=O)OCC)C1C(=O)OCC(=O)NC	i	-5.7	-6	0.73	·	-43	1.4
CCOc1ccc(Nc2nnc(Cc3ccc(OC)cc3)c(=O)[nH]2)cc1	i	-4.6	2	·	-12	·	8.8
S=c1[nH]nc(COc2ccc(Cl)cc2)n1Cc1ccccc1	i	2.1	-2	0.72	·	2.2	0.7
Cn1c(C(=O)NCCN2CCc3ccccc3C2)cc2c(=O)n(C)c3ccccc3c21	i	4.6	2	0.74	-13	-2.6	2.6
COc1ccccc1-c1nn(Cc2ccccc2)cc1/C=C/C(=O)O	i	2.0	5	0.72	-6	4.7	1.3
CC1(C)COCN1C(=O)c1ccc(C#N)cc1	i	7.5	0	0.67	0	2.0	-2.1
CN1CCN(c2cc(C(F)(F)F)nc(-c3ccccn3)n2)CC1	i	1.9	-7	0.69	0	3.3	-4.3
Cc1ccc(O)c(-c2cc(C(=O)Nc3ccc(S(=O)(=O)Nc4nccc(C)n4)cc3)[nH]n2)c1	i	78*	16	0.69	4	4.7	2.4
O=C(CN1C(=O)c2ccccc2S1(=O)=O)NCc1ccc(F)cc1	i	-5.9	-6	0.67	1	3.8	2.1
COC(=O)CN1C(=O)[C@H]2[C@@H](c3ccc(C)o3)N3C(=O)CN(CCO)C(=O)[C@@]3(C)[C@H]2C1=O	i	-4.2	-1	·	·	-1.4	4.6
O=C(CCn1nc(-c2ccc(Cl)cc2)c2ccccc2c1=O)NCCN1CCOCC1	·	1.7	1	0.7	22	1.0	2.2

Going on with the list:
SMILES	FGF22 binding	LANA-H2B inh	B2AR ag	E coli growth	ALR inh	UCH37 inh	HNF4A DNA FP
NC(=O)c1cc([N+](=O)[O-])ccc1NCc1cccc(N)c1	i	-1.3	-6	0.63	-6	2.0	2.5
CN(/N=C/c1cccs1)c1cc(=O)n(C)c(=O)[nH]1	·	2.4	-1	·	-38	·	-24
CCCCC(=O)Nc1cccc(NC(=O)c2cccc([N+](=O)[O-])c2)c1	i	2.7	2	0.65	-2	-0.8	1.1
CCOC(=O)c1oc2ccccc2c1CSc1nnnn1-c1ccccc1	·	0.6	4	0.73	10	-2.5	-3.5
Cc1c(C(=O)OCC(=O)N2CCCC(C)C2)oc2ccccc12 (stereo unspecified)	i	0.9	-1	0.67	-2	4.7	3.3
CCn1c(=O)n(CC)c2cc(N3CCCC3)c(NC(=O)c3ccc(C)c([N+](=O)[O-])c3)cc21	i	2.3	3	0.68	65	2.9	-0.8
COc1ccc(C(CC(=O)Nc2ccc(C)cn2)N2Cc3ccccc3C2=O)cc1 (stereo unspecified)	i	-5.5	-5	0.66	·	0.4	-1.9
Cc1cc(N/C=C/C(=O)c2cccc3ccccc23)no1	·	0.5	-8	0.68	-8	5.7	-0.8
CCn1c(SCC(=O)Nc2nc(-c3ccccc3)cs2)nnc1-c1ccccc1	·	-8.4	-4	0.7	-10	3.4	1.3
O=C(CSc1nnc(-c2ccc(NS(=O)(=O)c3ccccc3)cc2)o1)NCC1CCCO1 (stereo unspecified)	·	1.7	7	0.69	1	3.3	-3.1
O=C1CC(C(=O)NC2CCCCC2)C2(CCCCC2)O1 (stereo unspecified)	i	-2.0	5	0.68	-3	0.6	-1.0
C#CCSc1nc(Cc2ccc(Cl)cc2)nc2ccccc12	·	1.1	-10	0.72	-10	5.4	2.6
O=C(Cc1ccccc1[N+](=O)[O-])Nc1ccc2c(c1)OCCO2	i	0.1	-4	0.73	1	3.7	0.5
CS(=O)(=O)N(CCc1ccccc1)CC(=O)Nc1ccc(Br)cc1F	i	-0.7	-3	0.64	-19	-0.3	1.1
COc1ccc(-n2nnnc2SCC(=O)Nc2c(C)n[nH]c2C)cc1	i	6.9	6	0.66	-5	-1.3	1.4
O=C(NNC(=O)c1ccccc1F)c1ccc(-n2cncn2)c([N+](=O)[O-])c1	i	-2.8	-3	0.71	-9	6.1	5.6
COc1ccc(N2CCN(S(=O)(=O)c3cc(-c4cc(C)no4)ccc3C(C)C)CC2)cc1	i	3.1	-6	0.74	2	3.6	4.1
COCc1cc(C)nc(SCC[N+](C)(C)CC(=O)c2ccc(Br)cc2)c1C#N	i	-0.7	-14	0.69	-40	9.6	2.4
COc1ccc(C(=O)NCCc2c[nH]c3ccccc23)cc1OC	i	-4.9	-5	·	2	·	-2.5
CC(=O)NCCCCCCNC(C)=O	i	31*!	3	0.67	1	0.7	2.2

From PubChem
